Calb biofilm kill – clotrimazole potentiators killing C. albicans biofilm, primary screen, 4-compound mixtures. C. albicans biofilm persisters + clotrimazole, fluorescence viability; primary screen in compound mixtures of four per well. inhibition, % at 7.6 µM. 0.02% of 120,000 active. AID 1242, 2008;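 active = inhibition above 30.3% in the primary screen of four-compound pools, then above 30% when the compound was retested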;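 also: compounds exposed to preformed 24 h biofilms for 48 h; the number belongs to the whole pool; some results filed as inactive read as strong as hits; inactives centre near 12; 0% = biofilm with clotrimazole alone and 100% = kill control; retested singly at about 60 µM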
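Incubation: 24 h biofilm formation, then 48 h compound exposure, 37 °C | Material: C. albicans biofilms | Buffer or medium: RPMI/MOPS medium, pH 7.0 | Measured by: 2-h Alamar Blue fluorescence, 535/590 nm excitation/emission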
The depositor's hits bear a star.

SMILES | Calb biofilm kill
O=C(/C=C/c1cccs1)Nc1cccc(NC(=O)/C=C/c2cccs2)n1 | 22
COc1ccc(Nc2nnc(SCC3CCCCO3)s2)cc1 (centres undefined) | 9
O=C(O)/C=C/C(=O)Nc1ccccc1-c1ccccc1NC(=O)/C=C/C(=O)O | 20
Cc1ccc(-n2c(SCC(=O)Nc3cccc(S(=O)(=O)NC4=NCCCCC4)c3)nc3ccccc3c2=O)cc1C | 20
O=C(Cc1ccccc1)Nc1ccc(C(=O)NCC2COc3ccccc3O2)cc1 (centres undefined) | 5
CCN(CC)S(=O)(=O)c1ccc(N2CCCC2)c(NS(=O)(=O)c2ccc(F)cc2)c1 | 3
CN(C)S(=O)(=O)c1ccc(Cl)c(NC(=O)COc2ccccc2[N+](=O)[O-])c1 | 10
CC(=O)n1cc([C@H]2C=C(C(=O)N3CCN(Cc4ccccc4)CC3)O[C@@H](OCc3ccc(CO)cc3)C2)c2ccccc21 | 19
COc1cccc(C(=O)/C=C/c2ccc(OCC#N)c(OC)c2)c1 | 16
O=C(Nc1ccc(N2CCOCC2)cc1)c1ccc(-c2ccccc2[N+](=O)[O-])o1 | 5
O=S(=O)(c1ccc(Cl)cc1)N1CCN(S(=O)(=O)N2CCCCCC2)CC1 | 0
CCCCn1c(=NC(=O)c2ccco2)c(C(=O)OCC)cc2c(=O)n3cccc(C)c3nc21 | 25

In the list so far, 2 have four or more nitrogen atoms:
SMILES | Calb biofilm kill
Cc1ccc(-n2c(SCC(=O)Nc3cccc(S(=O)(=O)NC4=NCCCCC4)c3)nc3ccccc3c2=O)cc1C | 20
CCCCn1c(=NC(=O)c2ccco2)c(C(=O)OCC)cc2c(=O)n3cccc(C)c3nc21 | 25

(next part)
SMILES | Calb biofilm kill
OCC1(Cc2ccccc2)CCCN(Cc2cnn(-c3ccccc3)c2)C1 (centres undefined) | 14
C/C(N)=C(/C#N)C(=O)CSc1nnc(Nc2ccccc2)s1 | 8
C#CCOCCOCCOCCNc1nc(N2CCN(C(=O)C([C@@H](C)CC)n3cc(C(N)CC(C)C)nn3)CC2)nc(N2CCN(C(=O)[C@H](CCC(=O)O)n3cc(C(N)[C@H](C)CC)nn3)CC2)n1 (some centres undefined) | 16
Cc1cccc(OCCCC(=O)NCC(=O)Nc2cccc(C)c2C)c1 | 11
CC(=O)NCC(=O)NNC1CC(=O)N(c2cccc(Cl)c2)C1=O (centres undefined) | 21
Cn1c(SCC(=O)Nc2ccccc2)nnc1C(F)(F)F | 13
CCOc1ccc2c(c1)sc(N)[n+]2Cc1cc(C)cc2cccnc12 | 10
COc1ccc(Cl)cc1NC(=O)N1CCN(c2ccccc2OC)CC1 | 15
CC(C)CN1CCN(Cc2cccn2-c2cccnc2)CC1CCO (centres undefined) | 6
Cc1nnc(NN)n(N)c1=O | 14
COc1cc(/C=N/n2nnnc2Nc2ccccc2)cc(OC)c1OC | 0
COc1ccc(/C=C2\SC(=S)N(CC(=O)OCC(=O)Nc3ccc([N+](=O)[O-])cc3OC)C2=O)cc1 | 13
NNC(=S)Nc1c(Br)cc(F)cc1Br | 20
CC(C)N(C(=O)c1ccc(C(=O)Nc2ccc([N+](=O)[O-])cc2)cc1)C(C)C | -8
N#C/C(=C\N1CCCCC1)S(=O)(=O)c1ccc(Cl)cc1 | 15
S=C(NCCc1ccccc1)NN=C1CCCCCC1 | 3
Cc1ccc(NC(=O)c2cccc(NC(=O)/C=C/c3ccco3)c2)cc1C | 26
Cc1ccc(S(=O)(=O)N(C)C)cc1NC(=O)COC(=O)COc1ccccc1[N+](=O)[O-] | 9
S=C(NCc1ccccc1Cl)Nc1ccccc1Cl | 9
CCN(CC)CCN1C2=C(C(=O)CC(C)(C)C2)C(c2cccc(F)c2)C2=C1CC(C)(C)CC2=O | 10
NC(=O)C[C@@H]1NC(=O)CNC(=O)c2cc([N+](=O)[O-])cc(I)c2NCCC(C(N)=O)NC1=O (some centres undefined) | 9
COc1ccc(N(C)S(=O)(=O)c2ccc(C)cc2)c([N+](=O)[O-])c1 | -3
Cc1nnc(SCc2cc(=O)oc3cc(O)ccc23)n1Cc1ccccc1 | 3
COc1ccc(C(=O)N/N=C/c2cc(Br)ccc2O)cc1OC | 5
Cn1cnc([N+](=O)[O-])c1Sc1ncn[nH]1 | 19
COc1ccc(OC)c(NC(=O)Cn2cc(C=O)c3ccccc32)c1 | 9
Cc1ccc(N2C(=O)C3C(C2=O)N2C(c4cccs4)C4C(=O)N(c5ccc(C)cc5)C(=O)C4N2C3c2cccs2)cc1 (centres undefined) | 5
Cc1ccc(S(=O)(=O)Oc2ccc(/C=C(/NC(=O)c3ccccc3)C(=O)NCCCC(=O)O)cc2)cc1 | 9
CCOC(=O)c1cc(-c2ccccc2)sc1NC(=O)CC | 3
Cc1onc(C(=O)Nc2sc3c(c2C(N)=O)CCCC3)c1[N+](=O)[O-] | 26
CN1C(=O)C2(c3ccccc31)c1c(oc3ccccc3c1=O)C(=O)N2CCO (centres undefined) | 16
COc1ccc(NS(=O)(=O)c2cc(NC(=O)c3cccc(OCc4c(C)noc4C)c3)ccc2OC)cc1 | 8
COc1ccc(NC(=O)c2ccc(NC(=O)COC(=O)CC(NC(=O)c3ccccc3Cl)c3ccccc3)cc2)cc1 (centres undefined) | 21
O=C(Cc1ccccc1Cl)NNC(=O)Nc1ccccc1 | 17
CC1CC1C(=O)OCC(=O)Nc1ccc(N=Nc2ccccc2)cc1 (centres undefined) | 15
COc1ccc(NC(=O)CN2CCC(Cc3ccccc3)CC2)cc1S(=O)(=O)N1CCOCC1 | 11
COc1cccc(C2=NOC(C(=O)Nc3c(C)n(C)n(-c4ccccc4)c3=O)C2)c1 (centres undefined) | 15
CC(=O)NC1(C(=O)O)CCCC1 | 14
S=C(Nc1ccccc1)N1CCN(C(=S)Nc2ccccc2)CC1 | -9
CCCS(=O)(=O)Nc1c(C(=O)O)[nH]c2ccc(OC)cc12 | 24
O=C(c1ccccc1)N1CCN(C2CCCCC2)CC1 | 14
CN(C)c1ccc(CN(C(=O)/C=C/c2ccco2)C2CCS(=O)(=O)C2)cc1 (centres undefined) | 15
Oc1ccc(C=Nc2ccccc2-c2nc3ccccc3[nH]2)cc1 | 13
Cc1ccc(NC(=O)c2cncc(Br)c2)c(O)c1 | 3
O=C1c2ccc(-c3ccc4c(c3)C(=O)N(CCCO)C4=O)cc2C(=O)N1CCCO | 16
O=C(c1cccn(Cc2ccc(C(F)(F)F)cc2)c1=O)N1CCOCC1 | 16
CC(=O)c1cc(CN2CCN(CC=C(C)C)C(CCO)C2)cs1 (centres undefined) | 9
CCCc1nc2ccccc2c(NC(=O)CN(CC)CC)c1CC | 20
CC(C)N1C(=O)S/C(=C/c2ccc(Sc3nc4ccccc4[nH]3)o2)C1=O | 23
COC(=O)c1[nH]nc(C(=O)OC(C)(C)C)c1-c1ccccc1 | 11
CC1CN(C(=O)C(Sc2ccccc2)c2ccccc2)CC(C)O1 (centres undefined) | 18
Cc1cc(C)c(C#N)c(SCc2ccccc2C)n1 | 19
COc1cc(/C=N/Nc2ccc(F)cc2F)cc(OC)c1OC | 21
C/C(=N\NC(=O)C(C)n1nc(C)c([N+](=O)[O-])c1C)c1ccccc1O (centres undefined) | 13
CCOC(=O)CC1C(=O)NCCN1Cc1cccs1 (centres undefined) | -9
COc1cccc(/C=N/Nc2ncccc2[N+](=O)[O-])c1OC | 13
CCCCn1c(=O)[nH]c(=O)c2c1nc(-c1cc3c(cc1Br)OCO3)n2C | 14
CCOC(=O)c1cccc(NC(=O)/C=C/c2ccc([N+](=O)[O-])cc2)c1 | 10
C[C@H]1CC[C@H]2C(=O)N[C@H](Cc3ccccc3)C(=O)N2[C@@H]1c1ccccc1 | 0
FC(F)(F)c1cccc(OCc2noc(-c3ccsc3)n2)c1 | 18

(list continues)
SMILES | Calb biofilm kill
CC(=O)c1cccc(NC(=O)c2ccc(C(=O)Nc3cccc(C(C)=O)c3)nc2)c1 | 0
COCCNCC(=O)N1CCCCCC1 | 17
CCOC(=O)N1CCC(N(CCN(C)C)C(=S)Nc2ccccc2C)CC1 | 17
CCN(CC)S(=O)(=O)c1ccc(NC(=O)c2cccs2)cc1 | -1
COc1ccc(OC)c(-n2c(-c3ccc(O)cc3O)n[nH]c2=S)c1 | 6
COC(=O)C(C)(C(=O)OC)c1ccc(C(F)(F)F)cc1[N+](=O)[O-] | -8
CC(=O)c1c(C)[nH]c(C(=O)OCc2c(F)cccc2Cl)c1C | 4
C#CCSc1nc2ccccc2n1C(=O)c1ccc(S(=O)(=O)N2CCCCC2)cc1 | -13
Cc1ccc(O)c(C(CC(=O)NCc2cccnc2)c2ccccc2)c1 (centres undefined) | 12
COCc1cc(C)nc(OCC(=O)N/N=C/c2ccc(C)cc2)c1C#N | 12
COc1cc(C(=O)Nc2nc(-c3cc(C)ccc3C)c(C)s2)ccc1OCC(=O)Nc1ccc(F)cc1 | 21
CSc1nsc(SC)c1C(=O)O | 3
COc1ccccc1NC(=O)CN(Cc1ccco1)C(=O)c1ccc(Cl)nc1 | 14
O=C(O)c1cccc(N2C(=O)CCC2=O)c1 | 25
O=C(COC(=O)c1cc(NS(=O)(=O)c2cccs2)ccc1O)Nc1cc(Cl)ccc1Cl | 8
CCC(=O)Oc1ccc(C(=O)Nc2c[nH]c(=O)[nH]c2=O)cc1 | 2
COCCNc1cc(C)nc2cc(-c3ccc(C)cc3)nn12 | 6
NC(=Nc1ccc(N)cc1)C(N)=Nc1ccc(N)cc1 | 10
Cc1cc(/C=C2/C(=O)N(C)C(=S)N2C)c(C)n1C1CC1 | 15
CC/C(=N\NC(=O)Nc1ccccc1)c1ccccc1 | 7
OCC(O)CSc1nc(-c2ccccc2)nc2c1CCC2 (centres undefined) | 9
COCC(C)NS(=O)(=O)c1ccc(NC(=O)c2ccccn2)cc1 (centres undefined) | 21
CCOc1ccccc1OCC(=O)NNC(=S)NC1CCCCC1 | 18
CCO[C@H]1OC(C(=O)O)=C[C@@H](c2ccc(C(F)(F)F)cc2)[C@@H]1CCCO | 19

Single entries from the results shown:
Under Calb biofilm kill, COC(=O)C(C)(C(=O)OC)c1ccc(C(F)(F)F)cc1[N+](=O)[O-] is entered as -8
Under Calb biofilm kill, CCC(=O)Oc1ccc(C(=O)Nc2c[nH]c(=O)[nH]c2=O)cc1 is entered as 2
Under Calb biofilm kill, CC(=O)c1cc(CN2CCN(CC=C(C)C)C(CCO)C2)cs1 (centres undefined) is entered as 9
Under Calb biofilm kill, CC(=O)c1cccc(NC(=O)c2ccc(C(=O)Nc3cccc(C(C)=O)c3)nc2)c1 is entered as 0

(listing goes on)
SMILES | Calb biofilm kill
CCc1cccc(C)c1NC(=O)Cn1c(NCCO)nc2ccccc21 | 17
O=C(O)C1=C[C@H](c2ccccc2)C[C@H](OCc2ccc(CO)cc2)O1 | 17
Cc1ccc([N+](=O)[O-])cc1NC(=O)C1CCN(S(C)(=O)=O)CC1 | 11
Cc1ccc(Cn2cc(C(=O)c3ccc(F)cc3)c(=O)c3cc4c(cc32)OCCO4)cc1 | 16
COc1cc(S(=O)(=O)N2CCOCC2)ccc1NC(=O)COc1ccc(N(C)S(=O)(=O)c2ccc(C)cc2)cc1 | 4
Cc1ccc(C(=O)CSc2nnc(-c3snnc3C)n2C2CC2)cc1 | 11
CC1CN(C(=O)/C(C#N)=C2\N=C(NC(=O)c3ccc(F)cc3)c3ccccc32)CC(C)O1 (centres undefined) | -2
Cc1[nH]n(-c2ccccc2)c(=O)c1C(c1ccc(C(=O)O)cc1)c1c(C)[nH]n(-c2ccccc2)c1=O | 12
Nc1ncnc(Nc2ccccc2Cl)n1 | 24
CCOC(=O)N1CCN(CCC(=O)Nc2ccccc2OC)CC1 | 4
Cn1c(SCCOc2ccccc2Cl)nnc1-c1cccs1 | 15
O=C(Nc1cc(Cl)ccc1N1CCOCC1)c1cccnc1Cl | 29
O=C(COc1ccccc1Cl)NCCc1ccc2c(c1)OCCO2 | -3
CCCCn1c(=N)n(CC(=O)c2ccc([N+](=O)[O-])cc2)c2ccccc21 | 14
COc1ccc(/C(N)=N/OC(=O)c2ccc3c(c2)OCO3)cc1 | 2
Cc1cc(C)n(-c2ccc(C(C)C)cc2)c(=O)c1C#N | 17
Cc1ccc(NC(=S)NCC(C)C)cc1 | 6
O=c1[nH]c(CN2CCN(Cc3ccccc3)CC2)nc2scc(-c3ccccc3)c12 | 15
Cn1nc(C(=O)Nc2ccc(S(=O)(=O)N3CCCCC3)cc2)c2ccccc2c1=O | 8
CC1(C)CC(=O)C(N=Nc2cc(S(=O)(=O)N3CCOCC3)ccc2Cl)=C(O)C1 | 20
COC(=O)c1c(NC(=O)CN(c2ccc(C)c(C)c2)S(C)(=O)=O)sc2c1CCCC2 | 9
N#Cc1c2n(c3c(N)ncnc13)CCCCC2 | 21
CCN(CC)c1ccc(N2C(=O)/C(=C/c3ccccn3)SC2=S)cc1 | 15
CCCNC(=S)Nc1ccc(CC(=O)OC)cc1 | 14

Shown as a markdown table: part of the list above
| Structure | Calb biofilm kill |
| --- | --- |
| Cc1ccc(NC(=S)NCC(C)C)cc1 | 6 |
| O=c1[nH]c(CN2CCN(Cc3ccccc3)CC2)nc2scc(-c3ccccc3)c12 | 15 |
| Cn1nc(C(=O)Nc2ccc(S(=O)(=O)N3CCCCC3)cc2)c2ccccc2c1=O | 8 |

More entries.
SMILES | Calb biofilm kill
C/C(=N\NC(=S)NC(C)C)c1ccc2c(c1)OCCO2 | 21
S=C(NCc1ccco1)Nc1ccc(Oc2ccc(Cl)cc2)cc1 | 14
CCOc1ccc(-n2c(C)nc3cc(C(=O)NCCN4CCOCC4)ccc32)cc1 | 9
COC(=O)c1sc(NC(=O)CCCn2nc([N+](=O)[O-])cc2C)c(C(=O)OC)c1C | 7
COc1ccc(NS(=O)(=O)c2ccc(N/N=C/c3ccc(N4CCOCC4)cc3)c([N+](=O)[O-])c2)cc1 | -1
CCN(CC)c1ccc(/C=N/NC(=O)Nc2nonc2N)cc1 | 12

Screens deposited in PubChem by PCMD.

Only part of the results is shown (hit frequency here may not be typical).
